Screening results from PubChem BioAssay.
Ecoli rRNA inh: selective bacterial rRNA inhibition in E. coli; E. coli WT GFP vs humanized-ribosome RFP mutants, fluorescence, 24 h; stronger effect = lower value; DMSO median 0, no signal -100; GFP signal change (wild-type ribosome), % (concentration not given with the values); hit rate 1.6% among 350,000; AID 720706;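 active means significant combined selectivity score with lowered wild-type GFP, culture density cut under 30%, mutant RFP and density less affected; inactive means any of these conditions unmet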; further: one replicate is shown; some compounds called inactive have numbers as strong as hits
MLL AF4-AF9 inh: blocks AF4 peptide binding to human AF9. AlphaScreen, biotin-AF4 peptide binding to FLAG-AF9. inhibition, % at 10 µM. hit rate 0.47% among 350,000. AID 651704;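 active means every replicate reaching a set inhibition limit, whatever the replicate mean, cut at about 25% in these data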;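 further: 0% = plate neutral control median and 100% = total signal loss; the record names both 10 and 1 µM as test concentration; the first replicate is given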
Target sequence (P42568 whole entry, looked up): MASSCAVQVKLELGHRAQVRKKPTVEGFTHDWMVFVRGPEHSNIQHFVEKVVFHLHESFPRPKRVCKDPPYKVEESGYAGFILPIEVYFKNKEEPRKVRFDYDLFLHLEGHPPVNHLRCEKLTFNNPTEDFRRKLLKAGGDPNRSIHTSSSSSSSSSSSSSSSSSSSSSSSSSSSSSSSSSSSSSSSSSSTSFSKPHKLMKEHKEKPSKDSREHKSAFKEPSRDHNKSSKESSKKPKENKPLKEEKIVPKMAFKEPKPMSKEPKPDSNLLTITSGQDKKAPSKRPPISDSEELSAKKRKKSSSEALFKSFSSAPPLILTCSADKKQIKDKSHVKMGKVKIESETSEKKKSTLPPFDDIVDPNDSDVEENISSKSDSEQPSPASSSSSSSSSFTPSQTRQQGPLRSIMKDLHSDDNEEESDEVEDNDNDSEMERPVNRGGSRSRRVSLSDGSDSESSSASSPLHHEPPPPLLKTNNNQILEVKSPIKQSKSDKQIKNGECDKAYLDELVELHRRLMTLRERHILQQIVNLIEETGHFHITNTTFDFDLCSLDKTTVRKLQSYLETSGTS
Ecoli rRNA inh OD600: recorded beside Ecoli rRNA inh, whose call it bears; OD600 change, %; measured here: OD600 growth;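 optical density of the mix in the first replicate; 0 = DMSO median and -100 = no signal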
Ecoli rRNA inh RFP: further read-out of Ecoli rRNA inh, marked with its call; RFP signal change, %; measured here: RFP humanized mutant strains;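 first replicate; 0 = DMSO median and -100 = no signal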
* = called active by the depositor; & = joins results of further samples.

Molecule | Ecoli rRNA inh | Ecoli rRNA inh OD600 | Ecoli rRNA inh RFP | MLL AF4-AF9 inh
CCS(=O)(=O)NC[C@H]1[C@@H](c2ccccc2)[C@@H](CO)N1CC1CCCCC1 | -1 | -1 | -1.1 | -2.6
COc1ccc(NC(=O)Nc2ccc3c(c2)C(=O)N([C@@H](C)CO)C[C@H](C)[C@H](CN(C)C(=O)c2ccccc2)OCCCC[C@H](C)O3)cc1 | 0 | 6 | 2.3 | 0.1
C[C@@H]1CN([C@@H](C)CO)C(=O)c2cc(NC(=O)Cc3ccccc3)ccc2O[C@@H](C)CCCCO[C@H]1CN(C)C(=O)c1ccccc1 | -1 | -12 | -1.6 | -3.4
CS(=O)(=O)N1[C@@H](C#N)[C@@H](c2ccccc2-c2ccc(F)cc2)[C@@H]1CO | 3 | 20 | -4.9 | 5.8
CC(C)NC(=O)N[C@H]1CC[C@@H](CC(=O)N2CCCCC2)O[C@H]1CO | 2 | -6 | -1.3 | -0.6
O=C(C[C@H]1CC[C@H]2[C@@H](COC[C@@H](O)CN2C(=O)c2ccccc2)O1)N1CCc2ccccc2C1 | 1 | 5 | 0.1 | -5.2
CC[C@]12c3[nH]c4ccc(OC)cc4c3CCN1C(=O)C(CC(=O)NCCCN(C)C)C[C@@H]2C(=O)N1CCN(C(=O)c2ccco2)CC1 (some centres not stated) | 10 | 9 | -5.8 | -5.5
CCCNC(=O)N1C[C@@H](C)[C@@H](OC)CN(C)C(=O)c2cc(NC(C)=O)ccc2OC[C@@H]1C | 5 | 5 | -2.7 | -2.0
C[C@@H]1CN([C@H](C)CO)C(=O)c2cc(C#CC3CC3)cnc2O[C@H]1CN(C)C | 7 | 19 | -3.6 | -0.5
C[C@@H]1CN([C@H](C)CO)C(=O)c2cccc(NS(=O)(=O)c3ccc(Cl)cc3)c2O[C@@H]1CN(C)Cc1ccc(Oc2ccccc2)cc1 | 3 | -6 | 2.6 | 2.1
CO[C@H]1CN(C)C(=O)c2ccc(NC(C)=O)cc2OC[C@@H](C)N(C(=O)C2CC2)C[C@H]1C | 7 | 7 | -0.5 | -1.7
O=S(=O)(c1ccc(F)cc1)N1CCCCN2[C@H](C1)[C@H](c1ccc(-c3cncnc3)cc1)[C@@H]2CO | -4 | -13 | -3.1 | -3.4
CCNC(=O)C[C@@H]1CC[C@H]2[C@@H](COC[C@@H](O)CN2Cc2ccccc2F)O1 | 2 | 11 | 1.7 | 0.1
O=C(CCc1nc2ccccc2c(=O)[nH]1)N1CCN(S(=O)(=O)c2cc(Cl)ccc2Cl)CC1 | 6 | 17 | -3.3 | 2.2
CCCC#Cc1ccc([C@@H]2[C@H]3CN(S(C)(=O)=O)CCCCN3[C@H]2CO)cc1 | 8 | -13 | -3.4 | -0.9
CCCC(=O)Nc1ccc2c(c1)C(=O)N(C)[C@H]1CC[C@H](CC(=O)NCCCN(C)C)O[C@@H]1CO2 | 3 | 5 | -0.7 | -0.3
Cc1cc(C)nc(Nc2nc(C(N)Cc3ccccc3)cs2)n1 (configuration not stated) | 3 | -38 | 41 | 6.6
C[C@H](CO)N1C[C@H](C)[C@@H](CN(C)CC2CCCC2)OCc2cnnn2CCCC1=O | -1 | 3 | 1.4 | -1.4
C[C@H](CO)N1C[C@H](C)[C@H](CN(C)S(=O)(=O)c2ccc(F)cc2)Oc2ccc(NC(=O)Cn3cnnn3)cc2C1=O | 5 | 2 | -0.2 | -2.2
COCC(=O)Nc1ccc2c(c1)C(=O)N(C)[C@@H]1CC[C@@H](CC(=O)N3CCc4ccccc4C3)O[C@H]1CO2 | 0 | 7 | 0.2 | -1.7
CO[C@@H]1CN(C)C(=O)c2ccc(NS(=O)(=O)CC(F)(F)F)cc2OC[C@@H](C)N(CCC(F)(F)F)C[C@H]1C | 0 | -4 | -3.1 | -3.6
CCc1cc2c(nc1CC)CCCN2S(=O)(=O)c1ccc(C)cc1 | -55 | -75 | -16 | -0.6
O=C(Nc1cc(F)ccc1F)N[C@@H]1CC[C@H](CCn2cc(C3CC3)nn2)O[C@H]1CO | -1 | -8 | -0.9 | -1.1
O=C(C[C@@H]1CC[C@H]2[C@@H](COC[C@H](O)CN2CCC(F)(F)F)O1)NCC1CC1 | 2 | -6 | 0.4 | 0.0
CN1CCN(C(=O)C[C@H]2CC[C@H]3[C@@H](COC[C@@H](O)CN3C(=O)Nc3ccc(Cl)cc3)O2)CC1 | -19* | 7.0* | 5.6* | -4.4
C[C@H](CO)N1C[C@H](C)[C@H](CN(C)Cc2cccnc2)Oc2cc(-c3ccccc3F)ccc2S1(=O)=O | -38 | -63 | 18 | 5.6
C[C@@H]1CN([C@@H](C)CO)C(=O)Cc2cc(NC(=O)Nc3ccc(C(F)(F)F)cc3)ccc2O[C@@H]1CN(C)S(C)(=O)=O | 1 | 0 | 2.2 | 1.6
Cc1ccc(S(=O)(=O)Nc2cccc3c2O[C@H](CN(C)S(=O)(=O)c2ccccc2)[C@@H](C)CN([C@@H](C)CO)C3=O)cc1 | -4 | 0 | 1.9 | -0.6
COCC(=O)Nc1ccc2c(c1)[C@H]1C[C@H](CC(=O)NCCc3ccccc3)O[C@H](CO)[C@H]1O2 | -2 | -6 | -3.0 | -0.5
CCCCOCC1CC(CC#CCN2CCCCC2)C(=O)O1 (configuration not stated) | 14 | 12 | 0.9 | 0.5

Brought forward from above: five compounds, followed by the next part.
Molecule | Ecoli rRNA inh | Ecoli rRNA inh OD600 | Ecoli rRNA inh RFP | MLL AF4-AF9 inh
C[C@H](CO)N1C[C@H](C)[C@H](CN(C)Cc2cccnc2)Oc2cc(-c3ccccc3F)ccc2S1(=O)=O | -38 | -63 | 18 | 5.6
C[C@@H]1CN([C@@H](C)CO)C(=O)Cc2cc(NC(=O)Nc3ccc(C(F)(F)F)cc3)ccc2O[C@@H]1CN(C)S(C)(=O)=O | 1 | 0 | 2.2 | 1.6
Cc1ccc(S(=O)(=O)Nc2cccc3c2O[C@H](CN(C)S(=O)(=O)c2ccccc2)[C@@H](C)CN([C@@H](C)CO)C3=O)cc1 | -4 | 0 | 1.9 | -0.6
COCC(=O)Nc1ccc2c(c1)[C@H]1C[C@H](CC(=O)NCCc3ccccc3)O[C@H](CO)[C@H]1O2 | -2 | -6 | -3.0 | -0.5
CCCCOCC1CC(CC#CCN2CCCCC2)C(=O)O1 (configuration not stated) | 14 | 12 | 0.9 | 0.5
COc1ccc(NC(=O)N(C)C[C@H]2OCCCC[C@@H](C)Oc3ccc(NC(=O)c4ccccc4)cc3C(=O)N([C@H](C)CO)C[C@@H]2C)cc1 | -2&-8 | 2&-9 | 3.5&2.8 | 1.2&-2.2
C[C@@H]1CN([C@H](C)CO)C(=O)Cc2cc(NC(=O)CCN3CCOCC3)ccc2O[C@H]1CN(C)Cc1ccncc1 | -2 | -20 | -4.3 | -1.7
CC1=C(C(=O)N(C(C)C)C(C)C)CC(CC(=O)NCCCCc2ccccc2)C(=O)N1Cc1ccc(C(C)(C)C)cc1 (configuration not stated) | 8 | 4 | -0.8 | -2.1
Cc1ccc(CN(C)C[C@@H]2OCc3cn(nn3)CCCC(=O)N([C@@H](C)CO)C[C@@H]2C)cc1 | 1 | 14 | -1.9 | -0.9
C[C@H]1CCCCO[C@H](CN(C)Cc2ccc(C(=O)O)cc2)[C@@H](C)CN([C@@H](C)CO)C(=O)c2cc(NS(=O)(=O)c3ccc(Cl)cc3)ccc2O1 | 1 | 7 | 1.2 | -2.1
CNC(C)C(=O)NC(C(=O)NC(C)C(=O)Nc1cccc2ccccc12)C(C)C (configuration not stated) | 23 | 14 | 6.0 | -0.1
O=C(NCCc1ccccc1)[C@@H]1[C@@H](CO)[C@@H]2Cn3c(cccc3=O)[C@H]1N2C(=O)C1CCCC1 | -1 | 3 | -2.6 | -2.2
CC(C)(C)OC(=O)N(CC1CCNCC1)C(=O)c1[nH]c(C(F)(F)F)nc1-c1ccccc1 | 6 | 9 | 7.2 | 0.0
C[C@@H]1CCCCO[C@H](CN(C)S(=O)(=O)c2cn(C)cn2)[C@@H](C)CN([C@@H](C)CO)C(=O)c2cc(NC(=O)Nc3ccc(F)cc3)ccc2O1 | -1 | 3 | -3.2 | 0.6
COc1ccc2c3c(n(C)c2c1)[C@@H](CO)N(C(=O)C1CCCC1)CC31CCN(C(=O)CC2CC2)CC1 | 1 | -7 | 2.8 | -2.4
O=C(Nc1ccccc1)N[C@H]1CC[C@H](CCNS(=O)(=O)c2cccc(F)c2)O[C@H]1CO | -2 | 0 | -2.6 | -1.9
CCCC(=O)Nc1ccc2c(c1)C(=O)N(C)[C@@H]1CC[C@@H](CC(=O)NCCc3ccncc3)O[C@@H]1CO2 | 1 | -3 | -0.3 | -0.9
O=C(C[C@H]1CC[C@@H](NC(=O)Nc2ccc(C(F)(F)F)cc2)[C@H](CO)O1)NCCN1CCCC1 | 0 | 10 | 4.3 | 5.9
O=C(c1ccccn1)N1CC2(C1)[C@@H](c1ccccc1)[C@@H](CO)N2C(=O)CC1CC1 | 1 | 1 | -0.1 | 1.3
COc1ccccc1-c1ccc([C@H]2[C@@H](CO)N(C(=O)NC3CCCC3)[C@H]2C#N)cc1 | -27 | -48 | 5.5 | -1.4
COCC(=O)N1CCC2(CC1)CN(Cc1ccc3c(c1)OCO3)[C@@H](CO)c1c2c2ccc(OC)cc2n1C | 1 | -4 | -0.3 | -1.4
CC(C)NC(=O)N(C)C[C@@H]1Oc2ccc(NC(=O)CCCCCC(=O)Nc3ccccc3N)cc2C(=O)N([C@H](C)CO)C[C@H]1C | 1 | -3 | 1.6 | 0.4
CN(C)CC#Cc1ccc([C@@H]2[C@@H](CO)N3C(=O)CN(C(=O)c4cccnc4)C[C@@H]23)cc1 | 3 | 15 | -4.1 | 0.6
N#C[C@H]1[C@@H](c2ccc(-c3cccnc3)cc2)[C@H](CO)N1C(=O)C1CC1 | 2 | -2 | -0.2 | -1.2
COCCc1ccc(OC2(C)CCN(Cc3cccc(OC)c3OC)C2)cc1 (configuration not stated) | 1 | 0 | 0.8 | -1.1
NC(c1csc(Nc2ccc(C(F)(F)F)cn2)n1)C1CCCCC1 (configuration not stated) | -33 | -82 | -23 | 14
C[C@@H]1CN([C@@H](C)CO)C(=O)c2cc(NC(=O)Nc3ccc4c(c3)OCO4)ccc2O[C@@H](C)CCCCO[C@H]1CN(C)C(=O)C1CCCCC1 | -2 | 5 | 0.2 | -0.3
CO[C@H]1CN(C)C(=O)c2cc(NC(=O)c3ccc4c(c3)OCO4)ccc2OC[C@@H](C)N(CC2CC2)C[C@H]1C | 1 | -3 | -1.6 | -6.8
Cc1ccc(S(=O)(=O)NCC[C@H]2CC[C@@H](NC(=O)CC3CC3)[C@H](CO)O2)cc1 | 0 | 11 | -1.4 | -0.8
C[C@H]1CN([C@@H](C)CO)C(=O)c2cc(C3=CCCC3)cnc2O[C@H]1CN(C)Cc1cccnc1 | 4 | 4 | -4.4 | -1.2
Cc1ccc(S(=O)(=O)N(C)C[C@@H]2OCCCC[C@@H](C)Oc3ccc(NS(=O)(=O)c4cn(C)cn4)cc3C(=O)N([C@@H](C)CO)C[C@H]2C)cc1 | -4 | -2 | 0.5 | 2.3
C[C@H](CO)N1C[C@H](C)[C@@H](CN(C)S(=O)(=O)c2cccc(F)c2)Oc2ncc(-c3cccc(F)c3)cc2C1=O | -2 | -6 | 11 | 4.0
CC(C)C#Cc1cnc2c(c1)C(=O)N([C@H](C)CO)C[C@H](C)[C@@H](CN(C)C(=O)c1cccc(F)c1)O2 | 2 | 12 | -0.1 | -1.1
C[C@H](CO)N1C[C@H](C)[C@H](CN(C)C(=O)Nc2ccc(C(F)(F)F)cc2)Oc2ccc(NC(=O)Cc3cn(C)c4ccccc34)cc2CC1=O | 1 | -2 | -2.3 | -0.8
CC(C)C#Cc1ccc2c(c1)O[C@H](CN(C)Cc1ccccn1)[C@@H](C)CN([C@@H](C)CO)S2(=O)=O | -45 | -51 | 30 | 3.6

Next compounds follow:
Structure	Ecoli rRNA inh	Ecoli rRNA inh OD600	Ecoli rRNA inh RFP	MLL AF4-AF9 inh
CCS(=O)(=O)NCC[C@H]1CC[C@@H](NC(=O)C2CCCC2)[C@H](CO)O1	0	1	-1.4	0.8
C[C@H](CO)N1C[C@H](C)[C@@H](CN(C)S(=O)(=O)c2ccc(F)cc2)Oc2ccc(NC(=O)C3CC3)cc2CC1=O	4	5	0.1	-4.0
N#Cc1ccc(-c2ccc([C@@H]3[C@H]4CN(C(=O)Nc5ccc(F)cc5)CCCCN4[C@H]3CO)cc2)cc1	-25	-23	7.2	-12
CC(C)Oc1ccc(F)cc1-c1cc(C(=O)N2CCc3ccccc3C2)[nH]n1	-36	-60	-3.5	3.4
Cc1cc(C(=O)N2CCC2(C)C(=O)Nc2ccc3[nH]ncc3c2)nn1C (configuration not stated)	8	9	-3.4	-2.0
CC1(C(=O)Nc2ccc3ccccc3c2)CCC(=O)N1CCOc1ccccc1 (configuration not stated)	-12	-25	-4.8	1.1
CC1(C(=O)NS(=O)(=O)c2cccc(OC(F)F)c2)CCN1C(=O)CC(c1ccccc1)c1ccccc1 (configuration not stated)	-28	-38	-5.9	-9.5
C[C@H]1CN([C@@H](C)CO)C(=O)c2cc(C3=CCCCC3)cnc2O[C@@H]1CN(C)Cc1ccccn1	1	7	-2.5	-5.3
C[C@@H]1CN([C@H](C)CO)C(=O)c2cc(C#CCC3CCCC3)cnc2O[C@H]1CN(C)C(=O)CC1CC1	-1	-12	0.5	-1.0
CN(C[C@H]1[C@H](c2ccccc2)[C@@H](CO)N1CC1CC1)C(=O)c1ccc(F)cc1	0	3	1.3	-1.6

This is a subset; count on the stated rates, not on these rows.
